Source: PubChem BioAssay (National Center for Advancing Translational Sciences (NCATS))
RE007 growth inh – qHTS Assay for Inhibitors of the HIV-1 protein Vpr. S. pombe RE007 Vpr strain, BacTiter-Glo ATP luminescence, 24 h; control for the full effect not named in the record. Potency, µM (top dose mostly 92.2 µM), without a hit: top-dose activity change, negative = less growth. hit rate 0.21% among 360,000; active = well fitted falling curve with a large enough effect; inconclusive = small, poorly fitted or top-dose-only effect; inactive = no such curve, though single readings can be large or run the other way;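 note: % is set by controls: 0 for no effect and ±100 for the full control effect; nearly all actives have a fitted effect of over 50% in size; the assay follows cell death caused by Vpr and the record does not say whether a fall means rescue or toxicity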
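Fission yeast RE007 carrying one integrated HIV-1 vpr copy, seeded at OD 0.01 in PMG+AL medium with 23 nL pinned compound. Grown 24 h at 30 degrees; viability read by BacTiter-Glo luminescence after 5 min.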
Cruzain inh Det – qHTS Assay for Promiscuous and Specific Inhibitors of Cruzain (with detergent). Cruzipain (Trypanosoma cruzi), P25779. purified cruzain, Z-FR-AMC fluorescence, 0.01% Triton. Potency, µM, for the others: max response, negative = inhibition, hits mostly inhibitors. hit rate 0.43% among 200,000. AID 1478, 2009;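 note: plate controls were neutral wells for no effect and buffer without enzyme for full effect; nearly all actives have a fitted effect of over 40% in size; top concentration of the series not given in the record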
Target sequence (P25779 123-467 limits assumed): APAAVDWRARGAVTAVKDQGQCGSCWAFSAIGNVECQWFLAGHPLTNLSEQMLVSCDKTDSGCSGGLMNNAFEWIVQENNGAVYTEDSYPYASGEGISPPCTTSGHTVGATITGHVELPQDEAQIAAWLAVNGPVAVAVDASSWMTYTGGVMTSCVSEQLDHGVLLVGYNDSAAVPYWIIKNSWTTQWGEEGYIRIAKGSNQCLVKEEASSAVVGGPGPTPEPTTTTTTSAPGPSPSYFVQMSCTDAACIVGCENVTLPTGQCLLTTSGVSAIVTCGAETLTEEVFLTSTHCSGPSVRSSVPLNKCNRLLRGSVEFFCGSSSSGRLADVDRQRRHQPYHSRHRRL
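Z-FR-AMC hydrolysis (2 uM substrate) by cruzain (1.5 nM) monitored kinetically at ex 360/em 450 nm after 15 min room-temperature compound exposure; 0.01% Triton X-100, pH 5.5, 5 mM DTT.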
SARS PLP yeast – qHTS of Yeast-based Assay for SARS-CoV PLP; hit rate 0.19% among 330,000; S. cerevisiae expressing SARS-CoV PLpro, growth rescue; control for the full effect not named in the record; Potency, µM (top dose mostly 32.9 µM), for the others: top-dose activity, positive = growth rescue; AID 485353, 2010; active means well fitted rising curve with a large enough effect; inconclusive means small, poorly fitted or top-dose-only effect; inactive means no such curve, though single readings can be large or run the other way; note: 0% is about no effect; nearly all actives have a fitted effect of over 55% in size; growth read by luminescence after 48 h
MARV entry inh – qHTS for inhibitors of binding or entry into cells for Marburg Virus; Marburg virus pseudotyped entry inhibition, cell reporter; control for the full effect not named in the record; about a third of the inactives were read at about 46 µM; Potency, µM (series often up to 37.8 µM), without a hit: top-dose activity change, negative = inhibition, hits mostly inhibitors; hit rate 1.8% among 300,000; AID 540276, 2011; active = well fitted inhibition curve with a large enough effect; inconclusive = small, poorly fitted or top-dose-only effect, or effect the other way; inactive = flat fitted curve, though single readings scatter; tested in HEK293 cells; about a fifth of its hits are not listed in these tables; note: % is set by controls: 0 for no effect and ±100 for the full control effect; luciferase read-out
Lassa entry inh – qHTS for Inhibitors of binding or entry into cells for Lassa Virus; Lassa virus pseudotype entry inhibition, cell reporter; control for the full effect not named in the record; Potency, µM (doses to about 37.9 µM), for inactives: at the highest dose activity change, negative = inhibition, usual class: inhibitors; hit rate 1.2% among 300,000; active means well fitted inhibition curve with a large enough effect; inconclusive means small, poorly fitted or top-dose-only effect, or effect the other way; inactive means flat fitted curve, though single readings scatter; tested in HEK293 cells; note: % is set by controls: 0 for no effect and ±100 for the full control effect; nearly all actives have a fitted effect of over 50% in size; luciferase read-out
NS1 inh – qHTS Assay for Inhibitors of Influenza NS1 Protein Function | Potency, µM (highest dose often 46.1 µM), for the others: at the top dose activity, positive = more growth | hit rate 0.4% among 270,000 | AID 2326, 2010 | S. cerevisiae slowed by influenza A NS1, growth recovery by OD600; active means well fitted rising curve with a large enough effect; inconclusive means small, poorly fitted or top-dose-only effect; inactive means no such curve, though single readings can be large or run the other way; note: nearly all actives have a fitted effect of over 50% in size
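Growth recovery, yeast-based: influenza A NS1 expressed in S. cerevisiae causes slow growth, and suppressors are detected by OD600. The parent strain without NS1 is used as positive control.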
2A StopGo – High Throughput Screening for Foot and Mouth Disease Virus Antivirals; human cells with a luciferase reporter of 2A StopGo recoding; control for the full effect not named in the record; Potency, µM (doses to about 57.9 µM), without a hit: at the top dose signal change, negative = less light; hit rate 1.2% among 410,000; active = well fitted falling curve with a large enough effect; inconclusive = small, poorly fitted or top-dose-only effect; inactive = no such curve, though single readings can be large or run the other way; tested in HEK293T cells; note: % is set by controls: 0 for no effect and ±100 for the full control effect; nearly all actives have a fitted effect of over 45% in size; luciferase light after 4 h
Cruzain noTriton – qHTS Assay for Promiscuous and Specific Inhibitors of Cruzain (without detergent); Cruzipain (Trypanosoma cruzi), P25779; purified cruzain, Z-FR-AMC fluorescence, no detergent; Potency, µM, inactives show max response, negative = inhibition, hits mostly inhibitors; hit rate 2.3% among 200,000; AID 1476, 2009;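 note: plate controls were enzyme without inhibitor for no effect and buffer without enzyme for full effect; nearly all actives have a fitted effect of over 40% in size; top concentration of the series not given in the record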
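Purified cruzain at 1.5 nM, pre-incubated 15 min with compound at room temperature in 100 mM sodium acetate pH 5.5, 5 mM DTT, 0.00005% Triton X-100. Reaction started with 2 uM Z-FR-AMC; AMC fluorescence increase over 60 s gives rate.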
* marks the source's active call; other numbers are inactive results; ? = inconclusive; . = no result given; & = joins results of further samples; ! = a repeat was not active; [ ] = dose if it differs, or a comment. Unless noted, calls come from the whole dose curve; as a rule, active = well fitted curve in the direction sought with a large enough effect; inconclusive = small, poorly fitted or top-dose-only effect, or another doubt; inactive = no such curve, though single readings can be large; an effect the other way counts as inactive or inconclusive. Potency is the fitted concentration of half-maximal effect.

Structure,RE007 growth inh,Cruzain inh Det,SARS PLP yeast,MARV entry inh,Lassa entry inh,NS1 inh,2A StopGo,Cruzain noTriton
O=C(COc1ccc(Cl)cc1Cl)NCC(=O)N/N=C/c1c[nH]c2ccccc12,12%,-0.7%,13%,?,18%,8%,-20%,-17%
COc1cccc(/C=N/n2c(-c3cc(C)[nH]n3)n[nH]c2=S)c1OC,9%,.,0%,.,.,0%,-14%,.
Cc1ccc(C(=O)C2CC2)cc1C,1%,.,.,1%,-17%,.,9%,.
Cc1cc(C)n2c(nc3ccccc32)c1C(=O)NN,-10%,.,-1%,-2%[46.1 µM],-12%[46.1 µM],8%,-7%,.
CC(N)Cc1c[nH]c2c1ccc1ccccc12 (stereo not drawn),-7%,.,-1%,.,.,-6%,-14%,.
COc1cc([C@@H]2c3cc4c(cc3[C@@H](OC)[C@H]3COC(=O)[C@H]23)OCO4)cc(OC)c1O,-10%,.,-4%,.,.,-14%,-10%,.
Cc1c(Cl)cccc1NC(=S)Nc1ccc2[nH]c(=O)[nH]c2c1,2%,.,1%,.,.,4%,-5%,.
Cc1cccc(C)c1NC(=O)CN(C)C(=O)/C=C/c1cccs1,4%,-3.1%,2%,6%,11%,16%,-1%,3%
Cc1nn(C)c(C)c1/C=C/C(=O)O,8%,.,0%,.,.,2%,1%,.
O=C1C2C3C=CC(C3)C2C(=O)N1c1ccncc1 (stereo not drawn),1%,-0.5%,-15%,23%,-6%,-6%,1%,-6%

Brought forward from above: 4 entries; new compounds follow.
Structure,RE007 growth inh,Cruzain inh Det,SARS PLP yeast,MARV entry inh,Lassa entry inh,NS1 inh,2A StopGo,Cruzain noTriton
Cc1c(Cl)cccc1NC(=S)Nc1ccc2[nH]c(=O)[nH]c2c1,2%,.,1%,.,.,4%,-5%,.
Cc1cccc(C)c1NC(=O)CN(C)C(=O)/C=C/c1cccs1,4%,-3.1%,2%,6%,11%,16%,-1%,3%
Cc1nn(C)c(C)c1/C=C/C(=O)O,8%,.,0%,.,.,2%,1%,.
O=C1C2C3C=CC(C3)C2C(=O)N1c1ccncc1 (stereo not drawn),1%,-0.5%,-15%,23%,-6%,-6%,1%,-6%
O=C(NCc1ccco1)C(C(=O)c1ccc(F)cc1)n1ccccc1=O (stereo not drawn),-19%,4.7%,3%,1%,0%,4%,0%,-7%
CCN(CC)C(=O)CSc1nnc(CCN)o1,-1%,4.2%,3%,-3%,5%,5%,10%,-10%
C[C@]12CCC3C(CC[C@H]4C[C@H](O)CC[C@]34C)C1[C@@H](O)C[C@@H]2O (stereo partly drawn),-7%,.,2%,17%,1%,.,-15%,.
COC(=O)C1CCN(S(=O)(=O)c2ccc(N3CCCCS3(=O)=O)cc2)CC1,.,1.0%,.,.,?,.,-25%,?
COc1ccc(N2CCN(CC(=O)NC(=O)NCc3ccco3)CC2)cc1,-11%,-0.2%,15%,1%,-28%,-5%,-24%,-7%
Cc1cccc(NC(=O)CC23CC4CC(C2)CC(n2nnc(C)n2)(C4)C3)c1,12%,-4.9%,4%,?,-5%,-14%,-13%,-5%
COc1cc(OC)cc(C(=O)NNC(=O)c2ccc(-n3cncn3)c([N+](=O)[O-])c2)c1,5%,.,-1%,-1%[46.1 µM],18%,.,-7%,.
COC(=O)c1ccccc1NC(=O)c1ccc(COc2ccccc2Cl)o1,.,-0.7%,.,.,-11%[46.1 µM],.,-8%,-1%
Cc1cccc(C(=O)N=c2c(C#N)cc3c(=O)n4cccc(C)c4nc3n2Cc2ccco2)c1,8%&-11%,8.9µM*,16%,14µM*!,3%&-27%,16%,6%&-9%,16µM*
CC(=O)c1ccccc1C(=O)N1CCCC(C(=O)c2ccc(C(F)(F)F)cc2)C1 (stereo not drawn),-7%,.,0%,.,.,-5%,-1%,.

Next section.
Structure,RE007 growth inh,Cruzain inh Det,SARS PLP yeast,MARV entry inh,Lassa entry inh,NS1 inh,2A StopGo,Cruzain noTriton
O=C(COC(=O)/C=C/c1ccc([N+](=O)[O-])cc1)NCC1CCCO1 (stereo not drawn),-12%,.,3%,3%[46.1 µM],-11%,-3%,-10%,.
C[C@@H]1C2C[C@@]34COC(=O)C3=CC=C[C@H]4[C@@]13C[C@H](c1ccoc1)O[C@@H]3O2,5%,1.1%,-1%,11%,-2%,-2%,-18%,-3%
O=P(Nc1cccnc1)(Oc1ccccc1Cl)Oc1ccccc1Cl,?,-8.1%,-69%,-17%,17%,-52%,-17%,9%
COc1cc(C(=O)NCCC(=O)NCCN2CCOCC2)cc(OC)c1OC,2%,0.9%,1%,3%,10%,6%,23%,-2%
CCCOc1cccc(C(=O)Nc2cccc(NC(=O)c3ccc(Cl)cc3Cl)c2)c1,.,-2.9%,.,.,1%[46.1 µM],.,-19%,-26%
COc1ccc(-n2nc(C(=O)NCC(=O)N3CCCCC3)c3ccccc3c2=O)cc1,0%,.,0%,-21%[46.1 µM],.,12%,30%,.
CCCCOC(=O)/C=C\C(=O)NC(N)=O,-10%,.,-1%,?,?,10%,28µM*,.
CCC(=O)Nc1cc2c(C)cc(=O)oc2cc1C,13%,1.4%,-2%,3%[46.1 µM],1%,2%,-11%,-6%
CC1CCN(C(=O)c2ccc3ccccc3c2)CC1,-16%,.,-3%,20%[46.1 µM],-19%[46.1 µM],-9%,20%,.
Cc1ccc(C(C(=O)NC2CCCCC2)N(C(=O)c2csnn2)C2CCCC2)o1 (stereo not drawn),10%,-4.0%,-4%,4%&4%,7%,-3%,4%,-3%

Additional structures.
Structure,RE007 growth inh,Cruzain inh Det,SARS PLP yeast,MARV entry inh,Lassa entry inh,NS1 inh,2A StopGo,Cruzain noTriton
CCOC(=O)c1cnc2c(CC)cccc2c1NCCN1CCOCC1,-22%,.,-3%,.,.,-11%,-29%,.
O=C(OCC(O)C(O)COC(=O)c1ccccc1)c1ccccc1 (stereo not drawn),11%,-0.8%,-1%,46%,4%,6%,-19%,13%
CC(OC(=O)CNC(=O)c1ccccc1)C(=O)Nc1ccc(S(=O)(=O)N2CCOCC2)cc1 (stereo not drawn),0%,.,?,18%,-11%,.,-14%,.
COCc1ccc(CN2CCC(n3nccc3NC(=O)CCCc3ccccc3)CC2)o1,-10%,.,-1%,.,.,-12%,-3%,.
N/C(=N\OC(=O)c1ccc(Cl)cc1)c1cccnc1,?,4.7%,-13%,22%,?,-102%,39%[activator],-3%
Cc1ccc(-n2nc3ccc(NC(=O)c4ccc5c(c4)OCO5)cc3n2)cc1,4%,-0.7%,5%,-2%,-7%,11%,-7%,-6%
CCCc1nnc(SCC(=O)Nc2ccc(NC(C)=O)cc2)n1-n1cccc1,-4%,.,4%,-2%,16%,.,-20%,.
O=[N+]([O-])c1ccc(S(=O)(=O)NN=Cc2ccc3c(c2)OCO3)cc1,-2%,.,.,?,-4%[46.1 µM],.,49%[activator],.
O=C(NCC(=O)N1CCN(S(=O)(=O)/C=C/c2ccccc2)CC1)c1ccccc1F,-1%,.,-1%,-18%[46.1 µM],-14%,.,-8%,.
c1ccc(N2CCN(C3CC4CCC3C4)CC2)cc1 (stereo not drawn),-17%,.,-3%,.,.,-5%,-8%,.

The listing continues:
Structure,RE007 growth inh,Cruzain inh Det,SARS PLP yeast,MARV entry inh,Lassa entry inh,NS1 inh,2A StopGo,Cruzain noTriton
CCOc1cccc(OCCCNCCCOC)c1,2%,8.2%,3%,-4%,-13%,11%,-10%,-10%
Cc1cc(C)nc(NS(=O)(=O)c2ccc(NC(=O)CN3C(=O)c4ccccc4C3=O)cc2)n1,.,-8.8%,-3%,.,.,4%,.,0%
CC(=O)N1CC2(NC(=O)c3ccccc3N2)c2ccccc21 (stereo not drawn),-2%,.,4%,.,.,8%,0%,.
CCO[C@@H]1OC(C(=O)N2CCN(Cc3ccccc3)CC2)=C[C@H](c2coc3ccccc3c2=O)[C@H]1CCCO,8%,.,0%,.,.,-8%,-15%,.
COc1cc2c(C(=O)N3CCN(c4cccc(Cl)c4)CC3)cn(C)c(=O)c2cc1OC,9%,-1.0%&-0.3%,2%,-4%[46.1 µM],?,1%,?,?
CCOC(=O)C1(Cc2cccc(Cl)c2)CCCN(C(=O)c2cc(C)on2)C1 (stereo not drawn),-4%,.,-6%,-25%,?,-30%,14%,.
Cc1ccc2c(c1)C(C)CC(C)(C)N2C(=O)CN1CCN(C)CC1 (stereo not drawn),18%,.,-1%,.,.,7%,-20%,.
CCOc1ccccc1NC(=O)c1ccccc1N(C)S(=O)(=O)c1ccc(C)cc1,12%,.,.,-19%,?,.,30%,.
CCOc1ccc(C(=O)c2cn(CC(=O)Nc3ccc(Cl)cc3)c3cc4c(cc3c2=O)OCCO4)cc1,.,-2.7%,.,18%[46.1 µM],-8%[46.1 µM],.,?,-5%
Cc1ccc(NC(=O)COC(=O)C2(CC(=O)NC(C)(C)C)CCCC2)cc1C,15%,.,-14%,?,-22%,.,?,.

(continued)
Structure,RE007 growth inh,Cruzain inh Det,SARS PLP yeast,MARV entry inh,Lassa entry inh,NS1 inh,2A StopGo,Cruzain noTriton
CCc1ccc(NC(=O)C2CCN(S(=O)(=O)c3ccc4c(c3)NC(=O)C(C)S4)CC2)cc1 (stereo not drawn),-1%,.,-4%,?,?,3%,-9%,.
CCOc1cccc(C2c3[nH]c4ccccc4c3CCN2C(=O)CSc2ccccc2)c1 (stereo not drawn),.,3.3%,.,.,?,.,-26%,?
COc1ccc(CCNC(=O)c2c(C)noc2C)cc1,11%,1.6%,-9%,-8%,-14%,2%,.,0%
Cc1ccc2[nH]c(=O)c(CN(C(=O)c3cccc(Cl)c3)C(C)(C)C)cc2c1,.,3.0%,.,2%[46.1 µM],14%[46.1 µM],.,0%,-15%
COc1ccc2[nH]c(=O)c(CN(C(=O)c3cccnc3)c3ccc(C)cc3C)cc2c1,3%,.,0%,?,?,3%,-9%,.
